# GLA inh pH 4.5: alpha-galactosidase A (human) inhibition, pH 4.5 | P06280 | purified enzyme, 4-MU-alpha-Gal fluorescence, pH 4.5 | activity change, negative = inhibition, % at 105 µM | 230,000 tested, under 10 active | AID 1467; inconclusive = small, poorly fitted or top-dose-only inhibition, or a rising curve; inactive = flat fitted curve, though single readings scatter; no compound was filed as active;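 also: 0% = full activity with enzyme and -100% = basal without enzyme; dose as in the result columns while the protocol names 77 µM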
# Rango dissoc inh: inhibition of RanGTP-driven Rango-importin beta dissociation | Biochemical FRET Rango-importin beta, RanGTP-induced dissociation | Potency, µM (top dose mostly 46.1 µM), for inactives: at the top dose activity change, negative = inhibition | O95149+P62826 | actives 0.071% (n = 340,000); active means falling FRET ratio curve, often poorly fitted, with flat reads before Ran was added; inconclusive means other falling curves, or compound fluorescence or quenching; inactive means flat or rising ratio curve;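 also: potency is read from the fitted curve at half-maximal effect; % of control where 0% means no effect; nearly all actives have a fitted effect of over 45% in size; -100% = wells without RanGTP and RCC1; the record marks most hits as doubtful in a second field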
#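 Rango/importin beta premix (0.1/0.25 uM final), PBS + 1 mM DTT + 0.02% Tween-20 + 0.1% BSA; cpd 5 min RT; FRET pre-read; + RanGTP-RCC1 (0.6 uM Ran, 2 mM GTP, 0.2 uM RCC1); 45 min RT; FRET post-read, ex 430, em 486/530 nm.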
# Rango-impB inh: Rango-importin beta binding inhibition. Rango CFP/YFP FRET sensor + importin beta, 45 min. Potency, µM (highest dose often 92.2 µM), for inactives: at the top dose inhibition of complex formation. actives 0.031% (n = 340,000); active = rising FRET ratio curve, often small or poorly fitted; inconclusive = mostly compound fluorescence or quenching in the first reads; inactive = flat curves in all reads;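 also: potency is read from the fitted curve at half-maximal effect; 0% = DMSO wells and 100% = buffer wells lacking importin beta; nearly all actives have a fitted effect of over 15% in size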
# Target sequence (Q14974 whole entry, looked up): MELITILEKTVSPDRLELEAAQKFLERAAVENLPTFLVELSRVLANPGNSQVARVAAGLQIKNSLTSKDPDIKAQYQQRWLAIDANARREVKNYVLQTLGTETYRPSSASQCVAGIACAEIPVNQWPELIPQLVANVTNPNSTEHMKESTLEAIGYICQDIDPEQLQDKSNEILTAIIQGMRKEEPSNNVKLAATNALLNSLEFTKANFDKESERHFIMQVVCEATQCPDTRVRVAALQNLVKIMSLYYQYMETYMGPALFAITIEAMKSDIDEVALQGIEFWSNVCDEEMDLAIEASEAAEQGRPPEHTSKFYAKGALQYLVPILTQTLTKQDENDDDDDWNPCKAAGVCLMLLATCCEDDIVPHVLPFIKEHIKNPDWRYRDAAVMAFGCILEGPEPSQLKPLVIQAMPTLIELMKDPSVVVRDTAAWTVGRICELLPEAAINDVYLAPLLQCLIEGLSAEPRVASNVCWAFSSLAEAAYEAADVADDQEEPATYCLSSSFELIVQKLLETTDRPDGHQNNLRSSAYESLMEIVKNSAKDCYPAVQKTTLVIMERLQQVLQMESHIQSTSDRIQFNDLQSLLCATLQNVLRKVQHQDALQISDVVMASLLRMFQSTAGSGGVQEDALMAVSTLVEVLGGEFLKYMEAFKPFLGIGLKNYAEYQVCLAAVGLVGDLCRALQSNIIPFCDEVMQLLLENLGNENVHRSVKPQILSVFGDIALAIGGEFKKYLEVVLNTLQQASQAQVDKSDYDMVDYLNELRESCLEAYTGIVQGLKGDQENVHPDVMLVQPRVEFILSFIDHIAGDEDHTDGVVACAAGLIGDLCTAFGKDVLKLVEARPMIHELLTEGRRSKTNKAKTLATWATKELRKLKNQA
#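 FRET biosensor (snurportin 1 IBB flanked by EYFP and cerulean), 50 nM, with compound 5 min, then 0.125 microM importin beta in PBS, 1 mM DTT, 0.02% Tween-20, 0.1% BSA. CFP/YFP ratio read after 45 min at room temperature; pre-read flags interference.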
# miR-21 reporter: miR-21 reporter, rising signal; 340,000 tested, under 10 active; Potency, µM (titrated, usually from 38.3 µM), inactives show at the top dose reporter change, positive = more light; HeLa miR-21 FLuc reporter, luciferase, 48 h; active = well fitted rising curve with a large enough effect; inconclusive = small, poorly fitted or top-dose-only effect; inactive = no such curve, though single readings can be large or run the other way;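 also: % of control where 0% means no effect; miR-21 action dims this reporter so a rising signal means less miR-21 action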
#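 HeLa cells stably expressing CMV-driven firefly luciferase with a downstream miR-21 binding sequence, endogenously expressing miR-21, were treated with titrations (up to about 40uM final) for 48 hours at 37 degree Celsius. Luciferase luminescence was read after lysis.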
# * = called active by the depositor; ? = inconclusive; nt = no result given; & = joins results of further samples.
SMILES,GLA inh pH 4.5,Rango dissoc inh,Rango-impB inh,miR-21 reporter
O=C(OCC(=O)N1CCN(C(=O)c2ccco2)CC1)c1sc2ccccc2c1Cl,-11,-6%,-2.8%,0%
COc1ccc(CN2CCOCCOCCOCCOCC2)cc1,-6,7%,1.8%,-10%
COCc1cc(C)nc(N/N=C/c2ccc(Cl)c(Cl)c2)c1C#N,5,-16%,0.1%,-13%
CC1CCN(C(=O)Oc2ccccc2)CC1,-6,-2%,6.1%,-6%
O=C(O)c1ccc(NC(=O)c2ccccc2NC(=O)c2ccccc2Br)cc1,nt,-20%,2.4%,-1%
Cc1ccccc1Oc1ccc(-c2nc(N)nc(N)n2)cc1,2,0%,-1.3%,-24%
COc1ccc(NC(=O)C(CCS(C)(=O)=O)NC(C)=O)cc1 (stereo not drawn),-5,-6%,-4.2%,-2%
CSc1nnc(-c2ccc(C(F)(F)F)nc2C)o1,-3,11%,1.8%,-20%
OCCC1CN(C2CSCCSC2)CCN1Cc1ccccc1 (stereo not drawn),3,-2%,-7.0%,-2%
Oc1ccc2oc3c(c2c1)CCCC3,14,11%,0.2%,-18%
O=C(c1ccc(Cl)cc1)C1C2C(=O)N(c3ccccc3)C(=O)C2C2CCCN21 (stereo not drawn),1,-1%,-1.0%,-6%
O=c1nc(-c2ccccc2)cn[nH]1,-6,9%,-0.9%,-5%

# The closing 2 entries of the part before open the next one:
SMILES,GLA inh pH 4.5,Rango dissoc inh,Rango-impB inh,miR-21 reporter
O=C(c1ccc(Cl)cc1)C1C2C(=O)N(c3ccccc3)C(=O)C2C2CCCN21 (stereo not drawn),1,-1%,-1.0%,-6%
O=c1nc(-c2ccccc2)cn[nH]1,-6,9%,-0.9%,-5%
O=C(O)CSCC(=O)N1CCN(c2ncnc3scc(-c4ccccc4)c23)CC1,nt,-1%,-0.9%,1%
COc1ccc(CCOC(=O)c2ccc(N)c([N+](=O)[O-])c2)cc1,nt,0%,-1.6%,-10%
O=C(O)CCSc1nnc(-c2ccc3c(c2)OCO3)o1,-2,7%,?,?
CC(=O)OC(C(=O)N1CCN(c2ccccc2F)CC1)c1ccccc1 (stereo not drawn),-11,2%,3.1%,-2%
Cc1cc(=O)[nH]c2c(C)cc(S(=O)(=O)NCc3ccccc3)cc12,nt,6%,-1.3%,2%
O=C1c2ccccc2C(=O)N1CCCCN(C(=O)c1cc([N+](=O)[O-])ccc1Cl)c1ccc(Cl)cc1,-4,19%,0.1%,16%
CS(=O)(=O)c1cccc(NC(=O)C2CC2)c1,-23,-1%,2.3%,-1%
O=C(Nc1nnc(Cc2ccccc2)s1)c1cnccn1,9,-5%,-3.1%,-7%
COc1ccc(CC(=O)NNC(=O)COc2ccc(F)cc2)cc1S(=O)(=O)N1CCOCC1,nt,4%,-1.3%,nt
N#C/C(=C\c1cccs1)C(=O)NCc1ccccc1,-1,-5%,?,-16%
O=C1COc2ccc(S(=O)(=O)Nc3ccc(F)cc3)cc2N1,nt,-2%,4.2%,8%
CCN=C1SC(CC(=O)Nc2ccccc2)C(=O)N1CC (stereo not drawn),8,-2%&3%,-0.5%&0.0%,-12%
C#CCOCCOCCOCCNc1nc(N2CCN(C(=O)Cn3cc(CC(C)O)nn3)CC2)nc(N2CCN(C(=O)[C@H](CCCCN)n3cc(CCCC)nn3)CC2)n1 (stereo partly drawn),nt,-4%,-1.6%,nt
COc1ccccc1N1CCN(c2nccc(C)n2)CC1,nt,-15%,-0.7%,-7%
NC(=O)CSc1nnc2ccc(-c3ccco3)nn12,3,-14%,-0.4%,-1%
CC1(C)CC(=O)C=C(NNC(=O)C2CCCCC2)C1,0,-13%,-6.2%,-10%
Oc1ccccc1C1SC(c2ccccc2O)SC(c2ccccc2O)S1 (stereo not drawn),nt,24%,2.4%,nt
O=C1CCCc2ccccc2N1Cc1ccccc1,-8,6%,-1.0%,4%
O=C(COC(=O)CNC(=O)c1ccco1)Nc1ccc(Cl)cn1,5,7%,2.9%,4%
CC(C)N(C(=O)C(=O)c1cccn1-c1ccccc1C#N)C(C)C,15,21%,-0.4%,-7%
CN(C)S(=O)(=O)c1ccc(N2CCCC2)c(C(=O)Nc2cccc(F)c2)c1,nt,9%,1.5%,9%
CN(Cc1ccccc1)S(=O)(=O)c1ccc(Cl)c(C(=O)OCC(N)=O)c1,-4,4%,-3.8%,-2%
Cc1ccc2c(c1)C(=O)C(=O)N2Cc1ccc(F)cc1,nt,-4%,1.8%,nt
COc1cc2c3nnc(-c4ccccc4)c-3cn(Cc3ccc(F)cc3)c2cc1OC,-10,?,?,-8%
COCC(C)n1c(C)cc(C(=O)CSc2nnc(-c3ccco3)o2)c1C (stereo not drawn),nt,38%,1.6%,nt
Cc1cc(N)n2nc(C(F)(F)F)nc2n1,-6,?,3.3%,2%
O=C1CCN(CCc2ccccc2)CCN1[C@H](COc1ccccc1)c1ccccc1,nt,-24%,-3.6%,7%
COC(=O)C1CSC(C(=O)OC)N1C(=O)Nc1c(C)cccc1C (stereo not drawn),-19,0%,-0.3%,-5%
Cc1c(C(=O)NCc2ccc(F)cc2)oc2ccc(S(=O)(=O)N3CCOCC3)cc12,nt,?,-1.3%,14%
CC(C)(C)c1ccc2oc(=O)cc(-c3cccc(-c4ccc(C(F)(F)F)cc4)c3)c2c1,nt,7%,-2.6%,nt
COCCN(C(=O)COC(=O)CCn1c(C)csc1=O)c1c(N)n(Cc2ccccc2)c(=O)[nH]c1=O,nt,-8%,-0.3%,nt
C/C(CC(=O)NC(C)(C)C)=N\NC(=O)c1ccccc1N,4,0%,-0.9%,-59%
Cc1cccc(NC(=O)CSc2n[nH]c(-c3ccncc3)n2)c1C,nt,-15%,?,-10%
CCc1nnc(NC(=O)c2cc(S(=O)(=O)N3CCN(c4ccccc4)CC3)ccc2Cl)s1,-2,-19%,-5.3%,-1%
O=C(O)C1C2C=CC3(CN(C4CCCC4)C(=O)C13)O2 (stereo not drawn),-1,-12%,-0.7%,-2%
O=C(NCc1cccs1)c1cccnc1Cl,-5,1%,-0.2%,-8%
Cc1ccc(S(=O)(=O)NCCCNc2ccc([N+](=O)[O-])cc2)cc1,-7,3%,0.7%,12%
O=C(CSc1ccc([N+](=O)[O-])cc1)Nc1nnc(C2CC2)s1,nt,-13%,3.4%,nt
Cc1ccccc1NC(=O)C1COc2ccccc2O1 (stereo not drawn),nt,?,4.6%,-22%
COc1ccc(Cc2nnc(SCc3ccc([N+](=O)[O-])cc3)o2)cc1,-22,7%,3.7%,13%
CN(C)CCCNC(=O)c1cc2c3ccccc3n(C)c2s1,-20,-16%,-0.5%,-19%
CC(C)CNC(=O)CSc1ccc(S(=O)(=O)N(C)C2CCCCC2)cn1,nt,9%,-0.3%,nt
O=C(NCCC1CCCCN1S(=O)(=O)c1ccc(Cl)cc1)C(=O)NCc1cccnc1 (stereo not drawn),nt,19%,-1.3%,nt
O=C(CSc1ncccn1)N/N=C/c1cccc([N+](=O)[O-])c1,2,2%,-2.9%,1%
C=CC[C@]12CCc3ccccc3C1N(c1ccc(C(=O)OCC)cc1)C2=O (stereo partly drawn),nt,16%,0.1%,nt
COc1ccc(N=Cc2c(O)c3ccccc3oc2=O)cc1,-1,-16%,?,-10%
CC(C)(C)OC(=O)C[C@H]1C/C=C\C[C@H](CC(=O)NCCO)C(=O)N2CCC[C@@H]2COC1=O,nt,1%,-2.6%,nt
COc1ccccc1NC(=O)COc1ccc(C(=O)OCC(=O)NC(C)(C)C)cc1OC,10,0%,-4.0%,1%
O=C(NCCc1ccccc1)c1ccc(CS(=O)Cc2cccc(Cl)c2)o1 (stereo not drawn),nt,13%,?,-2%
COc1ccc(C)cc1NC(=O)Nn1cnnc1,-19,1%,1.3%,1%
Cc1oc(C(C)(C)C)cc1C(=O)NC1CCN(Cc2ccccc2)CC1,-4,-9%,-3.1%,3%
Cc1cnc(C(=O)OCC(=O)c2ccc(-c3ccccc3)cc2)cn1,nt,?,-2.9%,-16%
O=C(NCCc1ccccc1)C1CC1,nt,2%,-0.4%,-19%
CN(C)c1nc(SCC(=O)Nc2ccccc2)nc(N2CCOCC2)n1,-13,1%,-1.9%,-18%
CCn1ncc(Br)c1C(=O)Nc1nccs1,-5,5%,7.8%,-2%
Cc1cc[n+](CC(=O)Nc2cc(C(F)(F)F)ccc2Cl)cc1,2,-5%,-1.5%,-3%
CCOc1ccc(S(=O)(=O)N2CCOCC2)cc1NC(=O)CN1C(=O)NC2(CCCCC2)C1=O,nt,-1%,-1.5%,nt
O=C(COC(=O)c1ccc[nH]c1=O)NC1CCCc2ccccc21 (stereo not drawn),5,-2%,-3.6%,0%
O=c1[nH]c(/C=C/c2ccc(OC(F)F)cc2)nc2c1cnn2-c1ccccc1,7,-1%,-0.9%,-6%
Cc1nc2c(Br)c3nc(C(F)(F)F)[nH]c3c(Br)c2[nH]1,0,6%,0.2%,-2%

# Seven compounds out of the list above, ordered by their value in Rango dissoc inh, largest number first:
SMILES	GLA inh pH 4.5	Rango dissoc inh	Rango-impB inh	miR-21 reporter
O=C(NCCc1ccccc1)c1ccc(CS(=O)Cc2cccc(Cl)c2)o1 (stereo not drawn)	nt	13%	?	-2%
Cc1nc2c(Br)c3nc(C(F)(F)F)[nH]c3c(Br)c2[nH]1	0	6%	0.2%	-2%
CCn1ncc(Br)c1C(=O)Nc1nccs1	-5	5%	7.8%	-2%
O=C(NCCc1ccccc1)C1CC1	nt	2%	-0.4%	-19%
COc1ccc(C)cc1NC(=O)Nn1cnnc1	-19	1%	1.3%	1%
O=C(COC(=O)c1ccc[nH]c1=O)NC1CCCc2ccccc21 (stereo not drawn)	5	-2%	-3.6%	0%
Cc1cc[n+](CC(=O)Nc2cc(C(F)(F)F)ccc2Cl)cc1	2	-5%	-1.5%	-3%

# Further structures.
SMILES,GLA inh pH 4.5,Rango dissoc inh,Rango-impB inh,miR-21 reporter
Cc1c(C(=O)Nc2nnc(SCc3ccccc3Cl)s2)cccc1[N+](=O)[O-],-3,21%,6.0%,2%
Cc1ccc(CNc2ccc(S(=O)(=O)N3CCOCC3)cc2[N+](=O)[O-])cc1,5,4%,-4.9%,-15%
CN(C)/C=C/C(=O)/C=C/c1ccc(Cl)cc1,0,-8%,-2.7%,-24%
Cc1ccc(NC(=O)NCC(c2ccccc2)N(C)C)cc1 (stereo not drawn),nt,9%,0.8%,-44%
O=C(CSc1nc2ccc(NC(=O)CSc3nnnn3-c3ccccc3)cc2s1)Nc1ccccc1,-2,-15%,0.3%,-14%
CCOC(=O)c1cnn(Cc2ccccc2)c1N,-7,-4%,-0.4%,-2%
CC(=O)Nc1cccc(OCCOc2cccc([N+](=O)[O-])c2)c1,nt,9%,-2.0%,nt
OC(c1ccccc1)c1nccn1Cc1ccccc1 (stereo not drawn),-2,-1%,0.4%,-7%
O=C(Cc1cccc2ccccc12)N1CC[C@@]2(O)CCCC[C@H]2C1,-9,-10%,0.2%,-6%
Oc1ccccc1CNc1ccc(OC(F)(F)F)cc1,-5,23%,-3.8%,-22%
COC(=O)c1cc(S(=O)(=O)NCC2CCN(Cc3ccccc3F)CC2)c[nH]1,nt,-8%,-1.5%,-3%&0%
O=C(O)c1cccc(Cn2cc(Br)cn2)c1,2,30%,2.8%,0%
CC1=NNC(=O)C1CC(=O)N/N=C(\C)c1ccco1 (stereo not drawn),0,1%,2.4%,-5%
Cc1cccn2c(=O)c(/C=C(\C#N)C(=O)NC3CCS(=O)(=O)C3)c(Oc3ccc(F)cc3)nc12 (stereo not drawn),nt,?,?,13%
Cc1nnc(SCC(=O)NC2CCCC(C)C2C)n1N (stereo not drawn),nt,-1%,?,nt
COc1cc(C(=O)NC(=S)NCc2ccco2)cc(OC)c1OC,5,?,3.0%,-1%
Fc1ccc(-c2[nH]ncc2CN2CCN(c3ccc(F)cc3)CC2)cc1,-7,1%,-2.1%,6%
Nc1ccccc1C(=O)NCCCN1CCOCC1,nt,-9%,1.7%,-7%
Cc1ccc(NC2=Nc3ccccc3CS2)cc1,0,-7%,-0.1%,-4%

# Screening data from PubChem.

# Only part of the results is shown, so the mix of outcomes need not match the whole.
